Assay outcomes as filed in PubChem.
Rango-impB inh: qHTS Assay for Inhibitors of Rango (Ran-regulated importin-beta cargo) - Importin beta complex formation | Importin subunit beta-1 (Homo sapiens), Q14974 | hit rate 0.031% among 340,000 | AID 540263, 2011 | Rango CFP/YFP FRET sensor + importin beta, 45 min | Potency, µM (series often up to 92.2 µM), for the others: top-dose inhibition of complex formation; active = rising FRET ratio curve, often small or poorly fitted; inconclusive = mostly compound fluorescence or quenching in the first reads; inactive = flat curves in all reads;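 also: potency is read from the fitted curve at half-maximal effect; 0% = DMSO wells and 100% = buffer wells lacking importin beta; nearly all actives have a fitted effect of over 15% in size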
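Inhibition scored from the CFP 486 nm/YFP 530 nm FRET ratio 45 min after adding 0.125 microM importin beta to 50 nM Rango biosensor preincubated 5 min with compound (room temperature, PBS with DTT, Tween-20, BSA). No-importin wells as positive control.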
miR-21 reporter: qHTS Assay for Modulators of miRNAs and/orActivators of miR-21 | HeLa miR-21 FLuc reporter, luciferase, 48 h | Potency, µM (series often up to 38.3 µM), for the others: top-dose reporter change, positive = more light | 340,000 tested, under 10 active; active = well fitted rising curve with a large enough effect; inconclusive = small, poorly fitted or top-dose-only effect; inactive = no such curve, though single readings can be large or run the other way;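 also: % of control where 0% means no effect; miR-21 action dims this reporter so a rising signal means less miR-21 action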
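HeLa miR-21-FLuc reporter line, endogenous miR-21; 2000 cells/well in DMEM/10% FBS; compound titration up to ~40uM final, 48 h, 37 degree Celsius; luciferase detection reagent, 15 min lysis, CCD luminescence.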
GLA inh pH 4.5: qHTS Assay for Inhibitors of Human alpha-Galactosidase at pH 4.5. purified enzyme, 4-MU-alpha-Gal fluorescence, pH 4.5. 230,000 tested, under 10 active. Alpha-galactosidase A (Homo sapiens), P06280. activity change, negative = inhibition, % at 105 µM; inconclusive = small, poorly fitted or top-dose-only inhibition, or a rising curve; inactive = flat fitted curve, though single readings scatter; no compound was filed as active;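 also: 0% = full activity with enzyme and -100% = basal without enzyme; dose as in the result columns while the protocol names 77 µM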
Target sequence (P06280 whole entry, looked up): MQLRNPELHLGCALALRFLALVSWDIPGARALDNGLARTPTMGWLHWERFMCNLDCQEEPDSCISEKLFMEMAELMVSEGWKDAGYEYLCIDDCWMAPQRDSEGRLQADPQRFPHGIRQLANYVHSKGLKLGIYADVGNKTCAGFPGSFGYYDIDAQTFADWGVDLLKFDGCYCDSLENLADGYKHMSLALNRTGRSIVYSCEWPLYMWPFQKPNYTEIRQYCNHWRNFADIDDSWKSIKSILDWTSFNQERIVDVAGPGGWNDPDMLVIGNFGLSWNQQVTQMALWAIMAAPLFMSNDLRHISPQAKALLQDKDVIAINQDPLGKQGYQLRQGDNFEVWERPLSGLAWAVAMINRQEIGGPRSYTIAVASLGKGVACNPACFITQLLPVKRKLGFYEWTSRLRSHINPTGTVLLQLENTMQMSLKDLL
Rango release inh: qHTS Assay for Inhibitors of RanGTP induced Rango (Ran-regulated importin-beta cargo) - Importin beta complex dissociation; Biochemical FRET Rango-importin beta, RanGTP-induced dissociation; Potency, µM (titrated, usually from 46.1 µM), for the others: at the highest dose activity change, negative = inhibition; hit rate 0.071% among 340,000; active means falling FRET ratio curve, often poorly fitted, with flat reads before Ran was added; inconclusive means other falling curves, or compound fluorescence or quenching; inactive means flat or rising ratio curve;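 also: potency is read from the fitted curve at half-maximal effect; % of control where 0% means no effect; nearly all actives have a fitted effect of over 45% in size; -100% = wells without RanGTP and RCC1; the record marks most hits as doubtful in a second field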
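Rango FRET biosensor (snurportin-1 IBB flanked by N-terminal EYFP and C-terminal CFP10) at 0.1 uM, with 0.25 uM importin beta in PBS, 1mM DTT, 0.02% Tween-20, 0.1% BSA. 0.6 uM Ran, 2mM GTP and 0.2 uM RCC1 were then added for 45 min at room temperature. Inhibition read as loss of FRET rise.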
* hit, by the source's call; ? = inconclusive; · = no result given; & = joins results of further samples. Not all compounds are listed, so the mix of outcomes need not match the whole.

Each structure is followed by: GLA inh pH 4.5	Rango release inh	Rango-impB inh	miR-21 reporter
CCOC(=O)C1(CCOc2ccccc2)CCN(Cc2ccc(OC)cc2)CC1
 : ·	4%	0.4%	·
CCOc1ccccc1C(=O)N[C@H](C(=O)NNC(=O)c1cccs1)C(C)C
 : ·	0%	0.8%	·
Cc1nonc1CC(=O)N1CCCC(C(=O)c2ccc(Cl)cc2)C1 (configuration not stated)
 : 4	9%	-4.6%	0%
CCc1ccc(-n2c(SCC(=O)N3CCC(C(=O)O)CC3)nnc2-c2ccncc2)cc1
 : 10	-12%	6.4%	4%
Cc1ccc(C(=O)Nc2ncccc2O)cc1S(=O)(=O)N1CCCCC1
 : ·	0%	3.1%	·
CC(=O)NC(=O)COC(=O)/C=C/c1c(C)nn(Cc2c(Cl)cccc2Cl)c1Cl
 : 10	-13%	0.0%	12%
CCn1c(CN2CCN(CCO)CC2)nc2ccccc21
 : 6	18%	-4.0%	-1%
O=c1c2ccccc2sc2ccc(Cl)cc12
 : -10	-30%	-3.8%	-22%
CCOc1ccccc1NC(=O)C(OC(=O)c1cnccn1)c1ccccc1 (configuration not stated)
 : ·	13%	3.0%	·
Cc1ccc(CNC(=O)Nc2ccc(F)cc2)n1C
 : ·	-6%	?	-18%
O=C(CCl)Nc1cccc(S(=O)(=O)NC2=NCCCCC2)c1
 : ·	-11%	0.8%	·
N#CC(c1ccc(Cl)nn1)c1ccc(Cl)cc1Cl (configuration not stated)
 : 2	14%	2.0%	6%
CCC1CCCCN1C(=S)NC(=O)c1cccs1 (configuration not stated)
 : -7	-10%	2.8%	-11%
COc1ccc(N/C=C/C(=O)c2ccc3c(c2)OCO3)cc1OC
 : -18	?	?	-82%
COCCNc1nc2c(c(=O)n(Cc3cccc(Cl)c3)c(=O)n2C)n1C
 : ·	-14%	-3.3%	1%&-8%
Cc1cc(OC(C)C(=O)N2CCN(c3ccc(F)cc3)CC2)c2c(C)c(C)c(=O)oc2c1 (configuration not stated)
 : ·	-2%	9.7%	-2%
CCn1c(=S)[nH]c2c(=O)n(C)c(=O)n(C)c21
 : ·	-6%	4.2%	·
CCOc1ccccc1NC(=O)NCc1cccnc1
 : -3	-1%	0.1%	2%
Cc1c2c(nc3ccccc13)CCC(C)C2 (configuration not stated)
 : -8	-11%	-0.3%	-24%
CCOC(=O)c1ccc(S(=O)(=O)NNS(=O)(=O)c2ccc(C)cc2)cc1
 : ·	7%	3.3%	-1%

Random excerpt: 4 compounds from above
Each structure is followed by: GLA inh pH 4.5	Rango release inh	Rango-impB inh	miR-21 reporter
O=C(CCl)Nc1cccc(S(=O)(=O)NC2=NCCCCC2)c1
 : ·	-11%	0.8%	·
Cc1c2c(nc3ccccc13)CCC(C)C2 (configuration not stated)
 : -8	-11%	-0.3%	-24%
CC(=O)NC(=O)COC(=O)/C=C/c1c(C)nn(Cc2c(Cl)cccc2Cl)c1Cl
 : 10	-13%	0.0%	12%
Cc1ccc(C(=O)Nc2ncccc2O)cc1S(=O)(=O)N1CCCCC1
 : ·	0%	3.1%	·

Other results:
Each structure is followed by: GLA inh pH 4.5	Rango release inh	Rango-impB inh	miR-21 reporter
Cc1ccc2c(c1)COc1c3ccc(C(=O)N[C@@H](C)CO)cc3nn1-2
 : 4	1%	0.0%	-54%
CC(C)Cc1cc(C(=O)Nc2cc(Br)ccc2O)no1
 : 3	-3%	-0.1%	-21%
CCCn1cnnc1CNC(=O)C1CCC(=O)N(CCc2cccc(F)c2)C1 (configuration not stated)
 : ·	4%	0.5%	-3%
COC1=CCC2([N+](=O)[O-])CN(CC(=O)O)CC1([N+](=O)[O-])C2 (configuration not stated)
 : -1	2%	4.9%	-2%
CCN(CC)S(=O)(=O)c1ccc2c(c1)c(=O)c(C(=O)N1CCc3ccccc3C1)cn2C
 : 0	-10%	-0.3%	0%
CCOC(=O)c1oc2ccccc2c1COC(=O)CNC(=O)c1cccc(C)c1
 : ·	1%	-1.9%	-8%
CCOc1cc(N2CCOCC2)c(OCC)cc1NC(=O)CSc1nnc(N)s1
 : ·	8%	-1.9%	·
C=CCSc1nnc(NC(=O)C23CC4CC(CC(NC(C)=O)(C4)C2)C3)s1
 : ·	9%	8.5%	-4%
COc1ccc(C(=O)Nc2ccc(C)c(S(=O)(=O)N3CCOCC3)c2)cc1S(=O)(=O)N1CCCC1
 : ·	-4%	?	·
CC(=O)NC1(NC(C)=O)CCN(C)C(c2ccccc2)C1C (configuration not stated)
 : 0	-6%	-0.2%	0%
O=C(NCc1ccccc1)C(Cc1ccccc1)NS(=O)(=O)c1cccc2nsnc12 (configuration not stated)
 : -2	12%	-2.9%	7%
COc1cc(/C=N/NS(=O)(=O)c2ccccc2)ccc1OS(=O)(=O)c1ccc(C)cc1
 : -21	-5%	1.9%	-7%
COc1ccc(C2CC(c3ccc([N+](=O)[O-])cc3)=NN2C(C)=O)cc1 (configuration not stated)
 : ·	-9%	2.4%	-29%
CCSc1ccccc1C(=O)NCc1ccco1
 : 8	0%	-2.2%	-3%
Cc1c(Cl)c(C(=O)N2CCCc3ccccc32)nn1C
 : 3	-12%	-1.2%	-21%
CN(CC(=O)Nc1ccc(N2CCOCC2)cc1)C(=O)CCc1cc(C(C)(C)C)c(O)c(C(C)(C)C)c1
 : ·	-6%	0.3%	·
COc1cc(/C=N/NC(=O)C(=O)NCC2CCCO2)ccc1OCC(=O)N1CCOCC1 (configuration not stated)
 : -9	-6%	-0.2%	-1%
COc1ccc(N(CC(=O)NCc2ccc3c(c2)OCO3)C(=O)c2csnn2)cc1
 : ·	?	1.0%	-21%
COc1cccc(CN2CCNC(=O)C2CC(=O)NCCN2CCOCC2)c1OC (configuration not stated)
 : ·	1%	0.3%	2%
Cc1cc(NC(=O)c2cccc(S(=O)(=O)N3CCCCCC3)c2)no1
 : -3	-19%	1.1%	8%
CC(=O)c1c(C)[nH]c(C(=O)N2CCc3ccccc3C2)c1C
 : 4	3%	-5.4%	-6%
O=C(Nc1ccc2c(c1)oc1ccccc12)c1ccc2c(c1)OCO2
 : 1	2%	-2.7%	-48%
COc1ccc(N2CC(C(=O)Nc3nnc(SCC(=O)NC4CCCC4)s3)CC2=O)cc1 (configuration not stated)
 : ·	5%	2.1%	-2%
Cc1nc2c(cc1C#N)C(=O)c1ccccc1-2
 : 6	-7%	-2.6%	-13%
COc1cc(/C=N/NC(=O)C(=O)Nc2ccccn2)ccc1O
 : 0	2%	-1.4%	-8%
COc1ccc(Nc2ncnc3sccc23)cc1OC
 : ·	-15%	0.7%	-20%
CCN(CC)CC(=O)Nn1c(C)nc2c(ncn2-c2ccccc2)c1=O
 : 0	?	-0.5%	1%
COc1ccc(C(=O)CSc2nnc(CNC(=O)c3ccc(OC)cc3)n2C)cc1
 : -4	-2%	-3.9%	-4%
CCn1c(Oc2ccc(F)cc2)nc2c1c(=O)n(C)c(=O)n2C
 : 0	-1%	0.8%	14%
O=C(CN(Cc1cccs1)S(=O)(=O)c1ccc(S(=O)(=O)NC2CCCCC2)cc1)Nc1ccccc1
 : -9	-17%	2.3%	19%
O=C(Nc1ccccc1F)c1coc(=O)c(Br)c1
 : -3	0%	-0.6%	2%
O=C(NC(NC(=O)c1ccccc1)c1ccccc1)c1ccccc1
 : 4	4%	4.3%	-17%
CN1CCN(c2nc3c(c(=O)n(C)c(=O)n3C)n2CCSc2nc3ccccc3s2)CC1
 : 8	2%	1.5%	-6%
COc1cc(-c2nnc3sc(-c4cccs4)nn23)cc(OC)c1OC
 : 0	-11%	0.7%	-8%
O=C(O)c1ccccc1C(=O)Nc1ccc(-n2nccc2C(F)(F)F)cc1
 : -7	1%	0.1%	-13%
Cc1cc(C2=NNC(=NC3CC3)SC2)c(C)n1-c1ccccc1
 : -3	5%	1.1%	?
COc1ccc(/C=N/N2CCN(C)CC2)cc1O
 : -15	2%	-1.3%	9%
N#C/C(=C\c1ccccc1)C(=O)OCC(=O)N1CCCC1
 : 7	?	1.4%	0%
COc1ccccc1CNC(=O)COC(=O)Cc1ccsc1
 : 2	-2%	7.8%	-1%
N=c1n(CC(=O)c2ccc([N+](=O)[O-])cc2)c2ccccc2n1Cc1ccc(Cl)cc1
 : -4	21%	?	-6%
O=C(NC1CC1)C1=C[C@@H](c2coc3ccccc3c2=O)C[C@@H](OCCCCO)O1
 : 1	?	-3.4%	-13%
O=C(O)Cc1sc(Nc2ccc(Cl)cc2)nc1-c1cccs1
 : -6	-24%	?	-49%
Cc1ccc(C)c(N2CCN(C(=O)Nc3ccc4c(c3)N(C)C(=O)CS4)CC2)c1
 : -4	-10%	-1.6%	23%
O=C1OC(c2ccccc2)=N/C1=C\C=C\c1ccccc1[N+](=O)[O-]
 : -3	-23%	4.2%	-7%
Cc1ccc(C)c(N2CCN(C(=O)Cn3c(=O)[nH]c4ccsc4c3=O)CC2)c1
 : -2	-4%	0.2%	5%
O=C(Nc1cccc(F)c1)C1CC(=O)N(c2ccc(Cl)cc2)C1 (configuration not stated)
 : -3	1%	0.8%	0%
COc1ccc(NC(=O)N(C)C[C@H]2Oc3c(NS(=O)(=O)c4cn(C)cn4)cccc3C(=O)N([C@H](C)CO)C[C@@H]2C)cc1
 : ·	0%	-0.1%	·
COc1ccc(C(=O)N/N=C/c2ccc(OC)c(CSc3ccccn3)c2)cc1
 : -9	2%	-2.3%	-7%
Nc1c2nc(-c3ccccc3Cl)[nH]c(=O)c2nc(=O)n1-c1ccccc1
 : 14	9%	2.3%	-43%
CC/C(=C\C(=O)c1ccncc1)Nc1ccc(Br)cc1
 : 5	1%	-2.4%	-7%
CCN1CCN(S(=O)(=O)c2cc(OC)c(Cl)cc2OC)CC1
 : -6	14%	-2.0%	-2%
O=[N+]([O-])c1ccc(Cl)c(S(=O)(=O)Nc2cccc(-c3ccc(N4CCCC4)nn3)c2)c1
 : ·	-10%	-2.3%	·
Cc1ccc(C(=O)NCCN2C3=NC[C@H](C(C)C)N3C[C@H]2Cc2ccc(O)cc2)cc1Br
 : 7	7%	-0.3%	15%
NS(=O)(=O)c1ccc(N=NN2CCCCC2)cc1
 : 0	25%	0.8%	-49%
CCCC(=O)Nc1ccc(C(=O)Nc2ccc([N+](=O)[O-])cc2OC)cc1
 : 1	?	2.8%	0%
Cc1[nH]c2ccccc2c1SCCNC(=O)c1ccc(S(=O)(=O)N2CCCC2)cc1
 : -10	-3%	0.3%	4%
Cc1ccc(NC(=O)C2CC(=O)Nc3ncnn32)c(C)c1 (configuration not stated)
 : 4	8%	-0.4%	5%
Cc1ccc(CNCC(O)(c2ccc(F)cc2)c2ccc(F)cc2)cc1
 : -4	-17%	?	5%
C/C(=N\NC(=O)C(N)=O)c1ccc(Br)cc1
 : 0	5%	0.8%	-3%
Cc1ccc(-n2c(=S)[nH]c3c(oc4ccccc43)c2=O)cc1
 : 1	5%	0.3%	-34%

The results go on:
Each structure is followed by: GLA inh pH 4.5	Rango release inh	Rango-impB inh	miR-21 reporter
CCCCCn1c(Sc2ccccc2)nc2c1c(=O)[nH]c(=O)n2C
 : 6	-1%	0.5%	-13%
Cc1ccc(S(=O)(=O)Nc2cc(-c3ccccc3)nn2C)cc1Cl
 : -2	-2%	-0.9%	-5%
COc1ccc(-c2nc(CSCC(=O)NC3CCCc4ccccc43)c(C)o2)cc1 (configuration not stated)
 : -11	2%	1.6%	8%
CC1CCCN(CCOCCSc2ccccc2)C1 (configuration not stated)
 : -1	-17%	0.7%	-6%
O=C(CNC(=O)c1ccco1)N/N=C/c1ccc(O)cc1O
 : ·	-12%	-1.4%	5%
O=C(O)c1cccc(OS(=O)(=O)c2cc(Br)ccc2Br)c1
 : ·	-6%	2.0%	·
COc1ccc(C(CC(=O)Nc2ccccc2OC)n2cccc2)cc1 (configuration not stated)
 : 1	4%	5.2%	2%
COc1ccc2c(Cl)c(C(=O)N/N=C/c3c(C)[nH]c4ccccc34)sc2c1
 : -9	?	?	4%
